# Compound activity deposited in PubChem by National Center for Advancing Translational Sciences (NCATS).
# HPGD block: qHTS Assay for Inhibitors of HPGD (15-Hydroxyprostaglandin Dehydrogenase) | 150,000 compounds, 4.3% hits | Potency, µM, inactives show at the top dose activity change, negative = inhibition, actives largely listed as inhibitors | AID 894, 2007 | purified HPGD, NADH fluorescence kinetic, PGE2 substrate; active = well fitted inhibition curve with a large enough effect (not every such curve was filed as active); inconclusive = small, poorly fitted or top-dose-only effect, or another doubt; inactive = no such curve, though single readings can be large or run the other way;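 further: top concentration of the series not given in the record; plate controls included wells without enzyme; inactives centre near -10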
# Target sequence (P15428 whole entry, looked up): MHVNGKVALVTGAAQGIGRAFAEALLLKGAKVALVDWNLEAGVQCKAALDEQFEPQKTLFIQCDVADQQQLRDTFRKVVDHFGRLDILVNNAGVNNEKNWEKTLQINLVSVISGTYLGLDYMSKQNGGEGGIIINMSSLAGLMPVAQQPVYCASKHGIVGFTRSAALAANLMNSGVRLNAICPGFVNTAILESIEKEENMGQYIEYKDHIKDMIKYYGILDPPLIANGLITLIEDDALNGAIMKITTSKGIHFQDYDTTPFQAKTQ
#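 NADH formation kinetics: reaction with 30 uM PGE2 and 1 mM NAD+ (final), 20 nM enzyme, Tris-HCl pH 8 with Tween 20, after 15 min compound preincubation at room temperature. Fluorescence change, last versus first of five reads.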
# * hit, by the source's call; u = inconclusive; & = joins results of further samples. On the % scale 0 is the no-effect control and ±100 the full control effect; potency means the concentration at half of the fitted maximal effect. An excerpt (hit frequency here may not be typical).
SMILES,HPGD block
Cc1cc(/C=C(\C#N)C(=O)NCc2cccs2)c(C)n1-c1ccccc1F,u
CCCCSc1nnc(-c2ccc(OC)cc2)n1C,-12.8%
CC(=O)N1N=C(c2cccc(Cl)c2)OC1c1cccc([N+](=O)[O-])c1 (stereo not drawn),-4.2%
COc1ccc(N2CCN(CCCNC(=O)Nc3ccccc3)CC2)cc1,-15.0%
O=C(CNC(=O)C1CCCCC1)Nc1ccc(Cl)cc1,-10.7%
CCCCN(CC)CCNC(=O)CN1C(=O)COc2ccc(S(=O)(=O)N3CCCC3)cc21,-7.7%
CCOC(=O)NC1(Nc2cccc(Cl)c2)Oc2ccccc2O1,-13.7%
CCC1CCc2[nH]nc(C(=O)O)c2C1 (stereo not drawn),-9.6%
CC1CN(S(=O)(=O)c2cccc(C(=O)NCc3ccc4c(c3)OCO4)c2)CC(C)O1 (stereo not drawn),2.8%
CCOC(=O)N1CCN(c2ncnc3c2cnn3-c2ccc(OC)cc2)CC1,-14.1%
COc1ccc(Nc2nc(N)nc(CN3CCC(Cc4ccccc4)CC3)n2)cc1,-8.1%
OC[C@H]1NC[C@@H](O)[C@@H]1O,-15.3%

# Seven of these compounds, set out differently.
molecule | HPGD block
CCCCN(CC)CCNC(=O)CN1C(=O)COc2ccc(S(=O)(=O)N3CCCC3)cc21 | -7.7%
CCOC(=O)NC1(Nc2cccc(Cl)c2)Oc2ccccc2O1 | -13.7%
CCC1CCc2[nH]nc(C(=O)O)c2C1 (stereo not drawn) | -9.6%
CC1CN(S(=O)(=O)c2cccc(C(=O)NCc3ccc4c(c3)OCO4)c2)CC(C)O1 (stereo not drawn) | 2.8%
CCOC(=O)N1CCN(c2ncnc3c2cnn3-c2ccc(OC)cc2)CC1 | -14.1%
COc1ccc(Nc2nc(N)nc(CN3CCC(Cc4ccccc4)CC3)n2)cc1 | -8.1%
OC[C@H]1NC[C@@H](O)[C@@H]1O | -15.3%

# The results go on:
SMILES,HPGD block
CC1=C[N+](=O)c2ccccc2[N+]1=O,-1.3%
CCOC(=O)CSC1=C(C#N)C(=O)NC(c2ccc(OC)cc2)S1 (stereo not drawn),-15.8%
O=S1(=O)N=C(N2CCN(Cc3ccccc3)CC2)c2ccccc21,-7.2%
CCc1nn(C(C)C(=O)NCCN2CCN(c3cccc(C)c3C)CC2)c(=O)c2cc3occc3n12 (stereo not drawn),-11.2%
CN(C)S(=O)(=O)c1cccc(NC(=O)COc2cccc(C#N)c2)c1,-12.6%
CSc1cccc(NS(=O)(=O)c2ccc(F)cc2)c1,-25.7%
CC(C)(C)NC(=O)c1cccc(NC(=O)c2cccc(O)c2)c1,-6.4%
Cc1ccc(S(=O)(=O)CC(=O)N2CCCCCC2)cc1,-13.7%
C/C(=N\NC(=O)c1cc(C)[nH]n1)C(C)(C)C,-2.7%
COc1ccc(C(=O)c2ccc(N3CCN(C(=O)c4ccc(F)cc4)CC3)c(F)c2)cc1Br,u
Cc1cc(Oc2ccccc2)nc(SCC(=O)Nc2ccc(Cl)c(Cl)c2)n1,-3.2%
CC(NC(=O)Nc1ccccc1)c1ccccc1 (stereo not drawn),-3.0%
CC(=O)N1CCC(=NNC(=O)c2cccs2)CC1,0.2%
CC1CCN(C(=S)Nc2ccc(SC(F)F)cc2)CC1,-15.2%
Cn1c(C[C@@H](O)c2nc3ccccc3n2C)nc2ccccc21,-15.7%
O=C(Nc1ccncc1)C1c2ccccc2Oc2ccccc21,-16.9%
O=C(Nc1ccccc1C(F)(F)F)N1CCCCCC1,-4.8%
O=c1c2ccccc2nc(-c2ccco2)n1-c1nc2ccccc2s1,-17.6%
CC(C)(C)c1ccc(/C=N/OCC(=O)NCc2ccc(F)cc2)cc1,-14.6%
O=P(c1ccccc1)(c1ccccc1)C(O)c1ccncc1 (stereo not drawn),-1.7%
COc1ccc(NC(=O)COC(=O)CCCOc2ccc(Cl)cc2Cl)cc1,-13.1%
CCC(=O)Nc1cc(C)c(NC(=O)c2ccccc2OC)cn1,u
Cc1ccccc1C(=O)N1CCC(C(=O)Nc2ccc(S(=O)(=O)N(C)C(C)C)cc2)CC1,-13.2%
Cc1cccc(NC(=O)c2c(C)nc3ccccn23)c1,-11.9%

# Seven compounds drawn at random from the list so far:
SMILES,HPGD block
Cc1ccccc1C(=O)N1CCC(C(=O)Nc2ccc(S(=O)(=O)N(C)C(C)C)cc2)CC1,-13.2%
O=C(Nc1ccncc1)C1c2ccccc2Oc2ccccc21,-16.9%
CC1CCN(C(=S)Nc2ccc(SC(F)F)cc2)CC1,-15.2%
O=C(Nc1ccccc1C(F)(F)F)N1CCCCCC1,-4.8%
CC(=O)N1CCC(=NNC(=O)c2cccs2)CC1,0.2%
CC(C)(C)c1ccc(/C=N/OCC(=O)NCc2ccc(F)cc2)cc1,-14.6%
Cn1c(C[C@@H](O)c2nc3ccccc3n2C)nc2ccccc21,-15.7%

# Continuation:
SMILES,HPGD block
C=CCNC(=O)N[C@@H](CCSC)C(=O)OC,-4.7%
O=C(/C=C/c1ccccc1)c1ccc(NC2=NCCCS2)cc1,14.1µM*
O=c1c[n+]([O-])c2ccccc2n1OCc1c(F)cccc1F,-11.1%
CC1=CC(=O)C2=C(C)C[C@@H]3OC(=O)[C@@H](C)[C@H]3C=C12,-4.1%
Cc1ccccc1N(CC(=O)NCCc1ccccc1)C(=O)c1ccc(N2CCCC2)nc1,-2.7%
COc1ccc(OC)c(NC(=O)c2ccc(CN(c3cc(Cl)ccc3C)S(=O)(=O)c3ccccc3)cc2)c1,u
CCOC(=O)CSc1nc(Nc2ccc3c(c2)OCO3)c2ccccc2n1,-24.6%
CCOC(=O)C1=C(C)Nc2sc(C(=O)c3ccc(OC)cc3)c(N)c2C1c1ccc(C(=O)OC)cc1 (stereo not drawn),-19.1%
O=C(O)CC(CC(=O)Nc1nncs1)c1ccccc1 (stereo not drawn),-9.8%
CSc1nc2ccccc2n1C(=O)Oc1ccccc1,-12.9%
Cc1cc(C(=O)NCCCn2ccnc2)cs1,-6.6%
Cc1cc(C)c(NC(=O)CSc2nc3c(c(=O)n2C)SC(C)C3)c(C)c1 (stereo not drawn),-5.5%
O=C1CC(SC2=NCCS2)C(=O)N1c1ccc(Br)cc1 (stereo not drawn),-10.1%
C/C(=N\OCC(=O)Nc1ccc(F)c(F)c1F)c1cc2ccccc2o1,-7.6%
O=c1[nH]n2c(=O)c3c([nH]c2c1N=Nc1cccc(C(F)(F)F)c1)CCCC3,-26.6%
O=C(N/N=C/c1cccnc1)c1cc2ccccc2o1,-6.5%
O=C(c1ccccc1F)N1CCN=C1SCc1cccnc1,-11.9%
CC(=O)N[C@@H](Cc1c[nH]c2ccccc12)C(=O)O,-15.7%
CCOC(=O)c1cc(C(=O)NN)c(C)nc1C,0.5%
O=C(COc1ccccc1)N(Cc1ccco1)c1ccc(O)cc1,-7.5%
Cc1ccc(S(=O)(=O)NC(=O)NCc2ccc3c(c2)OCO3)cc1,-10.1%
Cc1ccc2occ(/C=C/C(=O)c3ccccc3O)c(=O)c2c1,-16.7%
CCc1nn2c(=O)cc(CSc3nc(C)cc(=O)[nH]3)nc2s1,-0.3%
CC(C)C[C@@H](CC(=O)N[C@@H](CCC(=O)O)CC(=O)O)NC(=O)[C@@H]1CNCC[C@H]1NC(=O)C[C@@H](NC(=O)C[C@H](Cc1c[nH]c2ccccc12)NC(=O)[C@@H]1CNCC[C@H]1N)C(C)C,-5.3%
Cc1ccc2c(c1)nnn2C1CCN(S(=O)(=O)c2ccc(C(=O)N3CC(C)CC(C)C3)cc2)CC1 (stereo not drawn),u
O=C(Nc1ccc(C(=O)O)cc1)Nc1cccc([N+](=O)[O-])c1,-6.6%
CCN(c1cccc(C)c1)C(C(=O)Nc1ccc(OC)cc1)c1cc2c(cc1[N+](=O)[O-])OCO2 (stereo not drawn),-9.5%
CC(=O)OC1CC[C@@]2(C)C3CC(=O)[C@]4(C)C(C(C)=O)=CCC4C3CC[C@H]2C1 (stereo partly drawn),-7.3%
Cc1cc(C(F)(F)F)c(C#N)c(N2CCOCC2)n1,-12.4%
CC(C)c1cc(C(=O)O)n(-c2ccccc2)n1,-6.1%
COc1ncc2nc(-c3cc(F)cc(F)c3)c(=O)n(C3CC3)c2n1,-16.1%
O=C1CCCN1c1ccc(S(=O)(=O)Nc2ccc3c(c2)OCCO3)cc1,-5.1%
CCOC(=O)c1cnn(-c2cc(C(C)(C)C)nc3c(-c4ccccc4)c(C)nn23)c1N,-4.8%
CCOC(=O)c1[nH]c(C)c(/C(O)=C2\C(=O)C(=O)N(CCCN(C)C)C2c2ccncc2)c1C (stereo not drawn),-3.1%
COc1cccc(-c2cc(C(=O)NCCCn3ccnc3)no2)c1,-10.9%
CCC1Oc2ccccc2N(CC(=O)Nc2ccccc2OC)C1=O (stereo not drawn),1.6%
CC(C)(C)OC(=O)N1CCC(C(=O)N[C@@H](Cc2ccccc2)C(=O)O)CC1,-9.5%
COc1ccc(F)cc1S(=O)(=O)NC1CC(C)(C)NC(C)(C)C1,-9.4%
Cc1cc(NC(=O)C2CCN(S(=O)(=O)c3cccs3)CC2)no1,-7.2%
COc1ccc(/C=N/NC(=O)c2c(C)n(C)c3ccc(OC)cc23)c(OC)c1,-27.8%
O=C(COC(=O)c1ccco1)NCc1ccco1,-15.8%
Cc1ccc(NC(=O)CC2C(=O)N(Cc3ccccc3)C(=S)N2NC(=O)c2cccc(F)c2)c(C)c1 (stereo not drawn),-9.4%
O=C(NCC1(c2ccccc2)CCOCC1)c1ccc(Br)o1,-0.4%
CCC(C)N=Cc1c(NCc2ccco2)nc2c(C)cccn2c1=O (stereo not drawn),u
CC(=O)Nc1ccc(S(=O)(=O)NCC(=O)OCC(=O)NC(=O)C2CCCCC2)cc1,-13.2%
CCC1CSC(Nc2ccc(C(=O)/C=C/c3cccc(C)c3)cc2)=N1 (stereo not drawn),-27.7%
COC(=O)C(C(=O)NCC1CCCO1)C1CCCC1 (stereo not drawn),-7.4%
C1CCC(N=C(NC23CC4CC(CC(C4)C2)C3)N2CCOCC2)CC1,-16.3%&-2.1%
O=C(NCc1cccs1)C1CCCCC1,14.1µM*
Cc1c(C(=O)Nc2ccncc2)sc2nc(-c3ccc(F)cc3)cn12,u
CCCN(Cc1cc2ccc(C)cc2[nH]c1=O)S(=O)(=O)c1ccccc1,-9.6%
c1ccc(-c2cn3nc(-c4ccccc4)c(-c4ccccc4)nc3n2)cc1,-19.6%
COc1ccc2c(c1)nc(SCC(=O)c1ccc(Br)s1)n2C,u
CC(=O)NCCNc1ccc([N+](=O)[O-])cn1,-15.9%
Cc1c2c(nc3nc4ccccc4n13)CC(C)(C)CC2=O,-13.2%
Cc1ccc(C(=O)NC(=S)Nc2c(C)ccc3nsnc23)cc1,-20.8%
COC(=O)CNc1c(-c2ccccn2)nc2ccc(Br)cn12,-1.4%
COc1ccc(OC)c(C2CC(=O)Nc3cc(OC)c(OC)c(OC)c32)c1 (stereo not drawn),-14.1%
Cc1cc(C(=O)CN2C(=O)C3CC=CCC3C2=O)c(C)n1-c1ccccc1 (stereo not drawn),-12.6%
CC(Sc1nnc(COc2ccc3ccccc3c2)n1C)C(=O)O (stereo not drawn),-9.1%

# Part of the list above, bar-delimited:
Molecule | HPGD block
CC(=O)NCCNc1ccc([N+](=O)[O-])cn1 | -15.9%
CC(Sc1nnc(COc2ccc3ccccc3c2)n1C)C(=O)O (stereo not drawn) | -9.1%

# For reference, five of the compounds above.
SMILES,HPGD block
Cc1ccc(C(=O)NC(=S)Nc2c(C)ccc3nsnc23)cc1,-20.8%
COC(=O)CNc1c(-c2ccccn2)nc2ccc(Br)cn12,-1.4%
COc1ccc(OC)c(C2CC(=O)Nc3cc(OC)c(OC)c(OC)c32)c1 (stereo not drawn),-14.1%
Cc1cc(C(=O)CN2C(=O)C3CC=CCC3C2=O)c(C)n1-c1ccccc1 (stereo not drawn),-12.6%
CC(Sc1nnc(COc2ccc3ccccc3c2)n1C)C(=O)O (stereo not drawn),-9.1%

# Next part.
SMILES,HPGD block
CCOc1ccc(NS(=O)(=O)N(C)C)cc1,-27.5%
COCCNC(=O)CCc1nc(-c2ccccc2)no1,15.8µM*
O=C1CC2(CCCC2)CC(=O)N1CCNC[C@H]1COc2ccccc2O1,-0.8%
COc1ccccc1C1CC(=O)Oc2cc(C)c(Cl)cc21 (stereo not drawn),-7.0%
COc1ccc(NC(=O)Cn2nnc(C(=O)NCc3cccc(OC)c3)c2N)cc1,-15.6%
NC1=NC(S)C2N=CN=C2N1 (stereo not drawn),u
CCCCC(CCC(=O)NNC(=O)Cc1ccccc1)C(=O)O (stereo not drawn),-0.8%
Cc1cc(NC(=O)CSc2cn(CCNC(=O)c3ccc(Cl)cc3)c3ccccc23)no1,-4.1%
